# Yeast UUG start = yeast start codon fidelity modulation; S. cerevisiae UUG-firefly luciferase reporter, luminescence/redox ratio; activity score, % at 18.7 µM; actives 0.13% (n = 350,000);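 active = replicate mean at a twofold rise or more, about +100% in these data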;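 note: firefly luciferase made from a UUG start codon reports start codon fidelity; reporter light over untreated wells divided by growth signal over untreated wells; some hits fall short of that in this replicate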
# eIF4H inh = inhibitors of RNA binding by human eIF4H; Q15056; eIF4H fluorescence polarization binding assay; inhibition, % at 35 µM; actives 0.94% (n = 290,000);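 active = 50% or more with normal probe brightness, or confirmed in later tests; inconclusive = above 50% with abnormal brightness, or retests that disagree; inactive = below 50% or failed in later tests; about a fifth of its hits are not listed in these tables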;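 note: calls also rest on retests at 20 µM and on dose response follow-up; 0% = protein and probe with vehicle and 100% = probe without protein; strong numbers were not always called active; many hits fall short of the cut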
# MT1-MMP act inh = inhibitors of human MT1-MMP activation. AID 651647. actives 0.061% (n = 360,000). HT1080 RFP-PRO-GFP cells, GFP/RFP ratio fluorescence, overnight; percent of plate control window, DMSO zero. GFP/RFP ratio change, % at 20 µM. P50281;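 active = GFP/RFP ratio change of at least 30% with cell ATP level not reduced by more than half and red fluorescence within 50% of control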; note: strong numbers were not always called active
#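 Test system: HT1080 cells expressing an RFP-PRO-GFP fluorescent reporter construct / Compound dosing: single-point 20 µM compound, 1% DMSO / Schedule: cells overnight before dosing, compound overnight, 37 °C, 5% CO2 / Evaluation: GFP/RFP fluorescence ratio / Control set: DMSO and RFP-L50D-GFP cell wells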
# HIV Env fusion = blocks HIV Env-driven cell-cell fusion. HeLa-JRFL Env/CEM21 cell fusion, luciferase. inhibition, % at 12.3 µM. actives 1.1% (n = 360,000). AID 651610;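 active = mean replicate inhibition score of at least 50 and every replicate individually at or above 50; inconclusive = only one of the two criteria met; inactive = mean below 50 and not all replicates reaching 50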;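 note: 0% = plate neutral controls and 100% = maraviroc near 300 nM; one replicate is shown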
# Rce1 inh = inhibitors of yeast Ras-converting enzyme; yeast membranes, quenched prenylated peptide cleavage fluorescence; calls only; actives 0.27% (n = 290,000);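 active = fall in fluorescence gain of 50% or more versus controls, with final raw signal at or below 3038400; inconclusive = same 50% fall but final raw signal above 3038400; inactive = fall in fluorescence gain under 50%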;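 note: plate controls were neutral control wells for no effect and wells lacking membranes for full effect; tested at 10 µM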
# Target sequence (Q03530 whole entry, looked up): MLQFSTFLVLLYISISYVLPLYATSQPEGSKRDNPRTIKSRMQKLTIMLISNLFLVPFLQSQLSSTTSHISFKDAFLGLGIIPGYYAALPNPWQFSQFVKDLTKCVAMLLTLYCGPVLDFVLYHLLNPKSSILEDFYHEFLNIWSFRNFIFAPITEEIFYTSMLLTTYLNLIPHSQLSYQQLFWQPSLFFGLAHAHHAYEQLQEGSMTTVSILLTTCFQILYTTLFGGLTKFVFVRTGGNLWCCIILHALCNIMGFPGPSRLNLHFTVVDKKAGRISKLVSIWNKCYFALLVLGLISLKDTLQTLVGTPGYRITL
# PABP FP inh = blocks human PABP binding to poly(A) RNA; fluorescence polarization; actives 1% (n = 290,000); AID 2014; inhibition, % at 35 µM; P11940;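 active = 50% or more with normal probe brightness, or confirmed in later tests; inconclusive = above 50% with abnormal brightness, or retests that disagree; inactive = below 50% or failed in later tests; about a fifth of its hits are not listed in these tables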;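 note: calls also rest on retests at 20 µM and on dose response follow-up; controls were probe without protein and protein plus probe with vehicle; some compounds called inactive have numbers as strong as hits; many hits fall short of the cut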
# CSC inhib = blocks cancer stem cells. AID 2717. cancer stem cell-like cells viability, luminescence. actives 1.1% (n = 300,000). inhibition, % at 7.5 µM;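 active = mean at 75% or more and at least half the replicates too; inconclusive = mean and replicates disagree; tested in HMLE shEcad cells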;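 note: 0% = median of negative and 100% = median of positive control wells; the first replicate is given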
# MT1-MMP act inh RFP = further read-out of MT1-MMP act inh, marked with its call; RFP signal change, %; measured here: RFP expression control read;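 0 = vehicle wells; hits needed this value within 50% of zero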
# An asterisk follows results filed as active; i = inactive; ? = inconclusive; . = no result given.
SMILES,Yeast UUG start,eIF4H inh,MT1-MMP act inh,MT1-MMP act inh RFP,HIV Env fusion,Rce1 inh,PABP FP inh,CSC inhib
CCOC(=O)c1c(NC(=O)CSc2nc3ccccc3c(=O)n2-c2ccccc2)sc(C(C)=O)c1C,.,-13,-6,-2,-19,i,3,9
Cc1cc(C(=O)Nc2ccc(S(=O)(=O)Nc3onc(C)c3C)cc2)cs1,-25,4,-1,2,-7,i,3,-8
Cc1cccc(NC(=S)N2CCN(c3ccc(F)cc3)CC2)c1,.,-4,2,2,-6,.,-5,-9
CC(C)NS(=O)(=O)c1ccc(CCC(=O)N2CCC(C(N)=O)CC2)cc1,.,-2,2,2,12,i,-1,9
CCc1ccc(C(O)c2ncc(-c3cccc4ccccc34)[nH]2)cc1 (stereo unspecified),-5,.,-1,-8,-21,.,.,.
O=C(c1ccc(F)c(S(=O)(=O)N2CCOCC2)c1)N(c1ccccc1)c1ccccn1,6,0,-4,-3,-8,i,4,-18
COc1ccccc1-c1cn[nH]c1-c1ccc(OCc2ccccc2)cc1O,.,5,3,0,-16,i,-5,34
COc1ccccc1CNCC(=O)Nc1ccc(C(F)(F)F)cc1,.,8,6,1,-4,i,13,3
CCOC(=O)C1CCCN(C(=O)C2CCN(S(=O)(=O)c3cccs3)CC2)C1 (stereo unspecified),5,-7,0,-2,-18,i,-3,3
Cc1ccc2c(c1)S(=O)(=O)c1ccc3ccccc3c1N2,-9,.,8,3,-14,.,.,.
CN(C)S(=O)(=O)c1ccc(N2CCCC2)c(C(=O)NCc2ccc(Cl)cc2)c1,-8,-10,1,-4,-3,i,-3,0
CCOC(=O)c1ccc(NC(=S)N2CCN(C(=O)C3CCCO3)CC2)cc1 (stereo unspecified),-28,6,-1,2,9,i,3,11
CC(C)C(=O)Nc1nc(-c2ccccc2)ns1,-20,1,5,-1,-264,i,-3,9
O=C(NN1C(=O)C2C(C1=O)C1C=CC2C12CC2)c1cccnc1 (stereo unspecified),.,-9,-2,0,-3,i,-14,17
O=C1CSC(c2ccccc2F)N1c1ccccc1 (stereo unspecified),-14,-8,-4,-1,1,i,6,-4
CCN(CC)S(=O)(=O)c1ccc2c(c1)nc(CCC(=O)Nc1cccc(C(F)(F)F)c1)n2CC,-17,-13,-10,-16,.,i,-17,12
COCCNC(=O)C1CCCN(C(=O)c2ccnc(Cl)c2)CC1 (stereo unspecified),-20,.,2,4,14,.,.,.
NS(=O)(=O)c1ccc(CCNC(=O)c2ccc3c(c2)N(Cc2ccccc2)CCS3)cc1,-2,-1,-3,-4,-6,i,10,-6
CCOC(=O)c1ccc2nc(C)cc(Nc3cccc(C(=O)O)c3)c2c1,.,0,.,.,.,i,-2,-11
CCc1nc(Nc2ccc3c(c2)OCCO3)c2oc3ccccc3c2n1,-17,-12,10,-6,45,i,16,.
CC(=O)Nc1cccc(C(=O)OC(C)C(=O)NC(=O)NC2CCCCC2)c1 (stereo unspecified),10,.,-1,-6,12,.,.,-10
CCOC(=O)COc1ccc(C)cc1-c1ccno1,-5,-1,4,3,-20,i,-9,-11
Cc1ccc2cc(/C=N/NC(=O)CN3CCCCC3)c(Cl)nc2c1,-20,-12,3,2,-7,i,19,12
O=C(CSc1ccccc1)OCC(=O)N1CCN(C(=O)c2ccco2)CC1,.,.,4,1,-6,.,.,-13
O=C(NCc1cccs1)C(=O)NCC(c1ccco1)N1CCN(c2ccccc2)CC1 (stereo unspecified),.,0,-2,-11,-18,i,-4,1
Cc1ccsc1C(C(=O)NC1CCCCC1)N(C(=O)c1csnn1)C1CC1 (stereo unspecified),-25,-1,-2,0,34,i,0,-15
CCCCCC(=O)N1CCCCC1,-13,9,2,2,9,i,8,17
O=[N+]([O-])c1cccc(CNc2ccc3c(c2)CCC3)c1,-6,-3,-2,0,-23,i,0,-2
CSc1ncc(C(=O)Nc2ccc(C(C)=O)cc2)c(-c2ccccc2)n1,-24,-13,0,-8,1,i,6,5
Nc1[nH]n2c(=O)cc(-c3ccccc3)nc2c1N=Nc1ccc2c(c1)OCO2,.,18,.,.,.,i,7,68
COc1ccc(CNc2ccc(Cl)cc2)cc1Cn1ccnc1,-22,3,-1,-5,9,i,-4,66
N/C(=N\S(=O)(=O)c1ccc(Cl)s1)c1ccccc1,117*,-8,6,-5,-10,i,0,-14
CCN(CC)S(=O)(=O)c1ccc(-c2nnc3sc4cccc(C)c4n23)cc1,-16,0,-4,-6,17,i,6,-4
CC(=O)c1cc(C#N)c(SCc2ccc(F)cc2)nc1C,-14,-2,-1,-3,.,i,-1,6
COCCCC1CCN(C(=O)C2CCC(=O)N(C3CCCCCC3)C2)CC1 (stereo unspecified),3,-14,2,-4,-16,i,-8,-18
O=C(OCC1COc2ccccc2O1)c1c(F)cccc1F (stereo unspecified),-20,21,2,6,.,i,9,5
CCC(C)[C@H](NC(=O)[C@@H]1Cc2c([nH]c3ccccc23)C2c3ccccc3C(=O)N21)C(=O)NCC1CCCO1 (stereo partly specified),-9,2,1,-6,.,i,21,-2
COc1cccc(NC(=O)NCc2cccn2C)c1,8,-2,2,-1,.,i,-3,8
CC(C)CCNC(=O)C(c1cccnc1)N(CCc1ccccc1)C(=O)Cn1nnc2ccccc21 (stereo unspecified),-17,-12,0,14,.,i,17,.
CCS(=O)(=O)c1nc(S(=O)(=O)c2ccc(Cl)cc2)c(NCCCN2CCOCC2)s1,2,0,1,3,3,i,5,-14
CCCCN(C(=O)c1c(C)[nH]c(C(=O)OCC)c1C)c1ccccc1,2,-8,-4,-7,8,i,-16,.
COc1ccc(C(=O)NC(=S)Nc2ccc(N3CCOCC3)c(Cl)c2)cc1[N+](=O)[O-],.,-3,4,-5,-5,i,1,19
COc1ccc(CN(C(=O)CN2C(=O)c3ccccc3S2(=O)=O)C(C(=O)NCC2CCCO2)c2ccco2)cc1 (stereo unspecified),1,-3,-2,3,-6,i,-4,-12
O=[N+]([O-])/C(=C\Nc1ccccc1Cl)S(=O)(=O)c1ccccc1,-26,3,-4,1,.,.,4,-2
COC(=O)c1nn(C23CC4CC(CC(C4)C2)C3)c2c1C(=O)N(c1ccc(F)cc1)C2=O,-11,-16,-3,-1,.,i,4,-11

# Whole records, quoted from the list.
# COc1ccc(CN(C(=O)CN2C(=O)c3ccccc3S2(=O)=O)C(C(=O)NCC2CCCO2)c2ccco2)cc1 (stereo unspecified) across the screens: Yeast UUG start = 1; eIF4H inh = -3; MT1-MMP act inh = -2; MT1-MMP act inh RFP = 3; HIV Env fusion = -6; Rce1 inh = i; PABP FP inh = -4; CSC inhib = -12
# COc1ccc(CNc2ccc(Cl)cc2)cc1Cn1ccnc1 across the screens: Yeast UUG start = -22; eIF4H inh = 3; MT1-MMP act inh = -1; MT1-MMP act inh RFP = -5; HIV Env fusion = 9; Rce1 inh = i; PABP FP inh = -4; CSC inhib = 66

# (further entries)
SMILES,Yeast UUG start,eIF4H inh,MT1-MMP act inh,MT1-MMP act inh RFP,HIV Env fusion,Rce1 inh,PABP FP inh,CSC inhib
COc1ccc(C(=O)NNC(=O)c2cc3cccc(OC)c3oc2=O)cc1,.,-4,5,-1,-3,i,3,-25
COc1cc(OC)nc(/N=C/NO)n1,-12,-3,-1,3,3,i,-4,-13
CC(C)C(=O)N1CCN(c2ccc(NC(=O)c3ccc([N+](=O)[O-])o3)cc2Cl)CC1,.,6,0,-22,i,.,5,.
CCOc1ccccc1-n1nnnc1SCC(=O)Nc1cc2oc3ccccc3c2cc1OC,-14,-2,-6,0,-39,i,-13,-6
O=C1NCCN1CCNS(=O)(=O)c1ccc2ccccc2c1,7,2,2,3,-10,i,0,-15
Cc1cccc(C(=O)N[C@@H]2c3ccccc3C[C@@H]2O)n1,0,.,3,8,-15,i,.,4
Cn1c(=O)c2c(nc(NCc3ccccc3)n2CCCc2ccccc2)n(C)c1=O,.,-16,-11,-5,.,i,-7,11
C/C(=N\NC(=O)c1cccc([N+](=O)[O-])c1)c1cccnc1,-11,-11,-4,1,-12,i,-2,-12
Cc1cc(N2CCN(C)CC2)nc2ccc(NC(=S)N3CCN(c4cccc(Cl)c4)CC3)cc12,-27,21,6,5,21,i,18,34
CN(C)c1ccc(C=NCCC2(O)CCOC(C)(C)C2)cc1 (stereo unspecified),118*,-8,-1,3,-5,i,3,.
CN(C(=O)CS(=O)(=O)c1cccc(Cl)c1)c1ccccc1,.,10,3,4,-1,i,11,-17
CCn1cc(/C=C/c2cc[n+](C)cc2)c2ccccc21,-3,?,-228,-21,40,i,?,12
Cc1nnc(NC(=O)CSc2ncn(-c3ccccc3)n2)s1,.,2,2,5,6,.,6,-13
Cc1ccc(S(=O)(=O)n2c3ccc(F)cc3c3nc(C)sc32)cc1,.,5,.,.,.,i,0,39
O=[N+]([O-])c1ccc(O)c(/C=N/Nc2ncnc3c2cnn3-c2ccccc2)c1,-27,21,-1,-14,0,i,2,104*
Cc1ccc(C(=O)NCC(c2ccco2)N2CCOCC2)cc1 (stereo unspecified),-3,.,-4,-3,13,i,.,6
Cc1ccc(-c2nnc3n2N=C(c2ccccc2)CS3)cc1,13,0,0,-4,-37,i,-29,-1
Cc1c(C(=O)N(Cc2ccccc2)C(C)C)oc2ccc(S(=O)(=O)N3CCOCC3)cc12,-8,.,-3,-4,6,i,.,7
CCOC(=O)N1N=C(c2ccccc2)CC1(O)C(F)(F)F (stereo unspecified),-12,-4,-4,-1,.,i,-5,-4
CC(C)C(=NO)c1ccccc1,-9,.,0,1,-6,.,.,.
CCOC(=O)CSc1nnc(COc2cccc(C)c2)o1,.,-7,0,-1,3,i,-5,1
CCCN1C(=O)/C(=C/c2cc(C)n(C)c2C)SC1=Nc1ccc(OC)cc1,-16,5,-9,-6,.,i,-4,59
CCOc1cc(Cl)c(S(=O)(=O)NCc2ccccn2)cc1Cl,-9,8,3,-10,.,i,1,2
O=C(O)CCc1nn2cc(-c3ccccc3)nc2[nH]c1=O,-15,17,2,0,.,i,8,3
CC1=C(C(=O)N2CCN(c3cc(C)ccc3C)CC2)C2(CCCCC2)OC1=O,-17,5,-4,-2,-62,i,5,-2
CCn1cc(/C=C(\NC(=O)c2ccc(OC)cc2)C(=O)N2CCOCC2)c2ccccc21,-18,.,-3,-2,2,i,.,-6
CN1CCN(C(=O)c2ccc3ccccc3c2)CC1,-22,3,3,3,-28,i,12,-1
COc1ccc(N(CC(=O)Nc2ccccc2C(N)=O)S(=O)(=O)c2ccc(C)c([N+](=O)[O-])c2)cc1,-8,-2,-3,-9,-4,i,0,-9
CCNc1cc(N2CCOCC2)nc(SC)n1,.,5,-1,-1,0,i,4,-9
CCOCCCNC(=O)C1CCN(C(=O)Nc2ccc(C)cc2)CC1,26,-7,3,3,-33,i,-4,2
CCN(CC)S(=O)(=O)c1ccc(N2CCCC2)c(NC(=O)C2=COCCO2)c1,.,.,2,-1,11,i,.,8
O=C(Nc1cccc(Cl)c1N1CCCC1)c1ccc([N+](=O)[O-])o1,-19,-8,-3,-4,7,i,3,100*
CC(C)N(C(=O)C(F)(F)F)C(C(=O)NC1CCCCC1)c1ccncc1 (stereo unspecified),-10,-2,1,-1,-34,i,-9,-11
CCNC(=O)C1CCCN(C(=O)c2ccco2)CC1 (stereo unspecified),-3,.,2,5,2,.,.,.
c1nc(N2CCN(Cc3ccc4c(c3)OCO4)CC2)c2[nH]cnc2n1,-5,-16,-4,0,12,i,13,9
CCCCN(C(=O)c1ccc(S(=O)(=O)N2CCCC2)cc1)C1CCS(=O)(=O)C1 (stereo unspecified),-17,.,-1,1,.,i,.,0

# Screens (PubChem)
